Screening results (PubChem)
Beta2AR agonist: beta2AR agonists driving receptor internalization, primary screen, cell-based, FAP fluorogen, flow cytometry | Am2.2-beta2AR cells; reference of the scale not given here | AID 504454, 2011 | response, % (test concentration not listed) | 340,000 tested, 0.43% active;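 active means response above a set limit, near 3 SD of response in nonfluorescent compounds, cut at about 42% in these data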;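 further: stock transfer was 100 nL into about 11 µL; a reference agonist was the positive control; negative values mostly stem from fluorescent compounds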
ALR inh: inhibitors of human ALR sulfhydryl oxidase, primary screen, biochemical, H2O2 detection, HRP-luminol luminescence, single point; 290,000 tested, 3.8% active; FAD-linked sulfhydryl oxidase ALR (Homo sapiens), P55789; inhibition, % (no concentration beside the values); purified ALR, DTT oxidation;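 active means mean and each replicate at 75% or more; inconclusive means only one of the two met; inactive means neither met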;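 further: stock transfer was 7.5 nL into about 7.5 µL; 0% = neutral wells and 100% = wells with inactivated enzyme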
RanGTP-Impb inh: inhibitors of RanGTP-importin-beta interaction, primary screen, biochemical, FRET, CFP-Ran, YFP-importin-beta, homogeneous. cell-free CFP-Ran/YFP-importin-beta FRET ratio. inhibition, % (no concentration beside the values). 300,000 tested, 1.1% active. AID 2216, 2009. Ran GTPase (GTP-bound) - importin-beta complex;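 active means most replicates above 15%; inconclusive means exactly half above 15%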;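 further: 0% = DMSO wells and 100% = Ran loaded with GDP instead of GTP; wells of about 40 µL received 100 nL stock; the first replicate is given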
Vif TR-FRET: inhibitors of Vif binding to APOBEC3G peptide, primary screen, biochemical, TR-FRET, GST-Vif 1-94, biotin-A3G peptide, dose response retest (AID 1117319); Virion infectivity factor (Human immunodeficiency virus type 1 group M subtype B (isolate …; TR-FRET GST-Vif / biotin-A3G peptide binding; higher % means a stronger effect; test concentration not given here; strong numbers were not always called active; inhibition, %; hits with a dose series show IC50 in µM; 260,000 tested, 0.57% active;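 active means above the screen mean plus three standard deviations and confirmed in dose response; inconclusive means results disagree or hit not tested in dose response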;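 further: Vif residues 1-94 fused to GST binding biotinylated APOBEC3G peptide 110-148; 0% = full assay without inhibitor and 100% = GST in place of GST-Vif; retest series ran down from 100 µM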
LANA-H2B inh: blockers of LANA interaction with H2A/H2B – biochemical, FP readout, HTS, primary screen; Protein LANA1 (Human herpesvirus 8 type P (isolate GK18)), Q9QR71; cell-free LANA-H2A/H2B peptide, fluorescence polarization; inhibition, % (concentration not given with the values); 320,000 tested, 0.6% active; AID 2629, 2010; in the data active means inhibition mostly above about 10%, no sharp cut-off; inactive means mostly below about 6.7%;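 further: stock transfer was 7.5 nL into about 10 µL; 0% = median of vehicle wells and 100% = median of positive control wells; one replicate is shown; the record names a cut of 25% in any replicate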
Target sequence (Q9QR71 whole entry, looked up): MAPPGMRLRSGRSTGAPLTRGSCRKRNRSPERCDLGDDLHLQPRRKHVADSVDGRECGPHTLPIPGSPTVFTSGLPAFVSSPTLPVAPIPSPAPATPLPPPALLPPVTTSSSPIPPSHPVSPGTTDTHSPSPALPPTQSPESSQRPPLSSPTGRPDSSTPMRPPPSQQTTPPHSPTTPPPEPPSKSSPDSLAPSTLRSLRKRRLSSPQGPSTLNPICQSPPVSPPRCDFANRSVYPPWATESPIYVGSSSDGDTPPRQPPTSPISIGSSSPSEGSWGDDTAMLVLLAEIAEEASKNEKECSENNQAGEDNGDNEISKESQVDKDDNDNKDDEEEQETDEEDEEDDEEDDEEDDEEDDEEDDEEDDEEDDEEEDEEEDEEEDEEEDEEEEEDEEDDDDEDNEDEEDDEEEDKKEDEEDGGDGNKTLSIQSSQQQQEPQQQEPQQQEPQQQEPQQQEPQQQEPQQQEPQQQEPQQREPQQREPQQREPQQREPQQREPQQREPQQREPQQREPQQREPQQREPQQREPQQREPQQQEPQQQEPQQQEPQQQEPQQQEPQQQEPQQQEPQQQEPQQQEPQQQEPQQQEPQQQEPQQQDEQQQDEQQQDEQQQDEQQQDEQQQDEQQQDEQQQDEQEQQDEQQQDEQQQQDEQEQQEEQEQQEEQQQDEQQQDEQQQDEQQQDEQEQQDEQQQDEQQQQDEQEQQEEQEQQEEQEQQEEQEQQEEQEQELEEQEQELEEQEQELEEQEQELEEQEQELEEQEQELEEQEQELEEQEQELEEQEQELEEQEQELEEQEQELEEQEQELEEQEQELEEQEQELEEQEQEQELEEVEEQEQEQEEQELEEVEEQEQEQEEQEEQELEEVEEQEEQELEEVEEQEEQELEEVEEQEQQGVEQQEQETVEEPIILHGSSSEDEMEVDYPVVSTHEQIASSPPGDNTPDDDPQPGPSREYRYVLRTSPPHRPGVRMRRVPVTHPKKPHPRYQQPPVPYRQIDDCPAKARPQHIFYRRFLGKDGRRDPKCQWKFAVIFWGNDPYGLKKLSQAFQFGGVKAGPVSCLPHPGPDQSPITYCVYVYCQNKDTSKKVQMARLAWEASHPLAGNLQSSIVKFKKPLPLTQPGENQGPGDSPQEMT
Calb FLC: C. albicans growth inhibition with fluconazole, primary screen, CaCi-2 strain, Alamar Blue fluorescence; growth inhibition, % (concentration not given with the values); 300,000 tested, 0.57% active; C. albicans CaCi-2 (fluconazole-resistant clinical isolate) + fluconazole, 48 h;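 active means most replicates above 75%; inconclusive means exactly half above 75%; inactive means most below 75%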;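 further: all wells also contain fluconazole at 8 µg/ml as a sub-toxic cotreatment; 0% = median of DMSO wells and 100% = median of geldanamycin control wells; wells of about 8 µL received 7.5 nL stock; the first replicate is given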
HNF4A DNA FP: change in binding of human HNF4A to DNA, primary screen, biochemical, fluorescence polarization, FITC-DNA; 1 h; activity change, % at 10 µM; 360,000 tested, 0.3% active; AID 1224865, 2016; in the data active means activity change above about 30%, passing the limit was not always enough;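 further: controls were the assay level and a saturating level of protein; the project sought stronger binding though the title names inhibitors; some compounds called inactive have numbers as strong as hits; positive values seem to mean higher polarization but the record does not say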
* hit, by the source's call; ? = inconclusive; / = no result given.

item	Compound	Beta2AR agonist	ALR inh	RanGTP-Impb inh	Vif TR-FRET
1	Cc1ccc(S(=O)(=O)N2CCC(C(=O)C3C(=O)CCCC3=O)CC2)cc1	-1	-4	-2.1	15%
2	CCOc1ccccc1CN1CCC(Oc2cccc(C(=O)NCCOC)c2)CC1	3	/	-2.4	/
3	O=C(Nc1nnc(C2=COCCO2)o1)c1cccc(Br)c1	6	46	6.1	/
4	O=C1NC(c2ccccc2O)Nc2ccccc21 (stereo not given)	3	5	3.2	/
5	c1ccc(-c2onc3c2CCCC3)cc1	0	-1	-0.9	1%
6	CC1CCCCC12NC(=O)N(CC(=O)OCc1ccccc1F)C2=O (stereo not given)	10	-1	/	6%
7	CN(c1ccccc1)S(=O)(=O)c1cccc(Cl)c1Cl	-10	/	3.6	-3%
8	O=C1c2ccccc2C(=O)N1CCCCN(C(=O)c1ccc([N+](=O)[O-])cc1)c1ccc(Cl)cc1	-6	3	0.4	0%
9	COc1ccc(NC(=S)Nc2ccc(OCc3ccccc3)cc2)c(OC)c1	2	-2	0.5	/
10	CCCCNC(=O)c1onc(CSc2ccncc2)c1C(=O)NCCCC	-5	0	-1.6	1%

item	LANA-H2B inh	Calb FLC	HNF4A DNA FP
1	-5.4	3	1.2
2	-1.2	-10	1.7
3	0.9	?	1.5
4	-0.5	?	-0.8
5	1.6	5	-0.9
6	-5.0	/	-0.9
7	-3.4	5	2.5
8	-0.3	-4	3.1
9	-0.5	-4	4.4
10	6.9	-2	1.3

Remaining list, next part.
item	Compound	Beta2AR agonist	ALR inh	RanGTP-Impb inh	Vif TR-FRET
11	CC(C(=O)Nc1cc(Cl)cc(Cl)c1)N1CCCC1 (stereo not given)	-13	/	2.9	-1%
12	CCN(CC)CCN1C(=O)C(=O)/C(=C(/O)c2ccc(S(=O)(=O)N3CCOCC3)cc2)C1c1ccccc1 (stereo not given)	4	-1	-0.3	/
13	Cc1cc(=O)[nH]c(SCC(=O)N2CCc3ccccc3C2)n1	0	3	1.2	3%
14	COCCn1c(SCC(=O)N2CC(=O)Nc3ccccc32)nc2ccccc21	-2	-20	-2.3	5%
15	CCn1cc(C(=O)N2CCn3c(nc4ccccc43)C2)c(=O)c2ccc(C)nc21	1	8	7.8	4%
16	O=C(c1ccccc1)C1C(c2ccccc2)C1[N+](=O)[O-] (stereo not given)	3	6	-1.1	11%
17	CCC(=O)N1CN(S(=O)(=O)c2ccc(C)cc2)CC1C (stereo not given)	3	-9	6.3	4%
18	COc1ccc(C2c3cc(OC)c(OC)cc3CCN2C2CC(=O)N(c3ccccc3)C2=O)cc1OC (stereo not given)	-1	/	1.2	14%
19	CCOc1ccc(CCNc2ccc3nnc(-c4ccccc4)n3n2)cc1OCC	4	1	-1.0	-10%
20	CC(C)n1cc(C(=O)N2CCCC(Nc3ccc(F)c(F)c3)C2)cn1 (stereo not given)	9	/	2.4	/

item	LANA-H2B inh	Calb FLC	HNF4A DNA FP
11	0.8	2	0.1
12	-9.1	-2	0.8
13	-0.1	18	2.2
14	1.1	-10	1.8
15	-7.3	4	-1.9
16	-0.4	-10	-1.9
17	6.5	-11	-0.2
18	/	37	4.2
19	-3.3	-3	5.2
20	4.7	19	-2.2

The listing continues.
item	Compound	Beta2AR agonist	ALR inh	RanGTP-Impb inh	Vif TR-FRET
21	CC1CN(C(=O)CSc2ncnc3sccc23)CC(C)O1 (stereo not given)	5	/	-2.7	0%
22	COCc1[nH]nc2c1C(c1cccc(OC)c1)C(C#N)=C(N)O2 (stereo not given)	-2	/	0.0	6%
23	CCOc1ccccc1C(=O)NCC(=O)N1CCC(C)CC1	2	2	/	/
24	CCOC(=O)CSc1cc(C(F)(F)F)nc(-c2ccccn2)n1	-6	-12	0.7	1%
25	CCN(CC)CCN(C(=O)/C=C/c1cccs1)c1nc2ccc(F)cc2s1	3	3	8.2	/
26	COc1cccc(NC(=S)Nc2ccc(F)cc2)c1	12	45	-1.0	/
27	CN(Cc1cnn(C)c1)C(=O)C1CCC(=O)N(Cc2ccc(Cl)cc2)C1 (stereo not given)	5	-6	-2.4	3%
28	CN(Cc1ccccc1N1CCCC1)C(=O)c1cc2cc(Cl)ccc2o1	2	4	/	3%
29	CCOc1ccc(NC(=S)N(CCOC)C(C)c2ccco2)cc1 (stereo not given)	3	-3	-6.4	12%
30	CCN(CC)S(=O)(=O)c1cc(NC(=O)c2cc([N+](=O)[O-])ccc2N2CCOCC2)ccc1C	-1	5	1.3	/

item	LANA-H2B inh	Calb FLC	HNF4A DNA FP
21	-1.1	10	6.9
22	-1.6	-16	-1.6
23	2.0	/	-2.2
24	3.4	7	1.4
25	2.5	-19	-3.3
26	0.8	-5	-0.9
27	4.5	0	-3.0
28	/	/	0.4
29	0.5	-4	7.8
30	1.2	4	-1.9

One compound at a time, from the list above. Order of values: Beta2AR agonist	ALR inh	RanGTP-Impb inh	Vif TR-FRET	LANA-H2B inh	Calb FLC	HNF4A DNA FP
`CN(Cc1ccccc1N1CCCC1)C(=O)c1cc2cc(Cl)ccc2o1` reads 2	4	/	3%	/	/	0.4
`CC1CN(C(=O)CSc2ncnc3sccc23)CC(C)O1` (stereo not given) reads 5	/	-2.7	0%	-1.1	10	6.9

Further entries follow.
item	Compound	Beta2AR agonist	ALR inh	RanGTP-Impb inh	Vif TR-FRET
31	Clc1ccc(CN2CCSCC2)c(Cl)c1	-2	/	0.1	/
32	CCCCn1nc(C(=O)Nc2nc3c(s2)CCCC3)c2ccccc2c1=O	0	2	-2.7	-6%
33	Cn1c(N)c(C(=O)COC(=O)CCCOc2ccc(Cl)cc2Cl)c(=O)n(C)c1=O	-2	12	?	-6%
34	O=C(NCc1cccnc1)c1ccc(Cl)c(S(=O)(=O)N2CCCCCC2)c1	-1	2	-1.1	-5%
35	CC12CCC(C(=O)N(CSC(=S)N/N=C\c3ccccc3)C1=O)C2(C)C (stereo not given)	-7	9	-1.8	11%
36	Cc1ccc(-c2nc3s/c(=C\c4ccco4)c(=O)n3n2)cc1	6	3	1.7	28µM*
37	CCOC(=O)CNc1ccc(C(=O)OCC)cc1[N+](=O)[O-]	2	-1	-1.3	/
38	CCOc1ccc(C(C)(C)C)cc1S(=O)(=O)n1nc(C)cc1C	-3	-8	-4.6	-2%
39	O=C(NCc1cccs1)c1ccccc1F	4	-5	6.8	16%
40	O=S(=O)(c1ccc(SCc2ccc(Br)cc2)nc1)N1CCCCC1	-5	/	/	-3%

item	LANA-H2B inh	Calb FLC	HNF4A DNA FP
31	1.7	-5	1.6
32	-2.6	3	0.9
33	2.0	2	3.1
34	6.6	10	-6.2
35	-11	7	1.1
36	7.9	-8	-9.7
37	1.3	2	2.7
38	-3.8	-5	1.8
39	-0.4	-10	5.2
40	/	/	2.8

Rewritten as labelled records: part of the list above
[27] CN(Cc1cnn(C)c1)C(=O)C1CCC(=O)N(Cc2ccc(Cl)cc2)C1 (stereo not given)
- Beta2AR agonist: 5
- ALR inh: -6
- RanGTP-Impb inh: -2.4
- Vif TR-FRET: 3%
- LANA-H2B inh: 4.5
- Calb FLC: 0
- HNF4A DNA FP: -3.0

[9] COc1ccc(NC(=S)Nc2ccc(OCc3ccccc3)cc2)c(OC)c1
- Beta2AR agonist: 2
- ALR inh: -2
- RanGTP-Impb inh: 0.5
- Vif TR-FRET: /
- LANA-H2B inh: -0.5
- Calb FLC: -4
- HNF4A DNA FP: 4.4

Back to the main list, starting 2 compounds before the break.
item	Compound	Beta2AR agonist	ALR inh	RanGTP-Impb inh	Vif TR-FRET
39	O=C(NCc1cccs1)c1ccccc1F	4	-5	6.8	16%
40	O=S(=O)(c1ccc(SCc2ccc(Br)cc2)nc1)N1CCCCC1	-5	/	/	-3%
41	Cc1ccnc(SCC(=O)Nc2sc3c(c2C#N)CCCC3)n1	-15	2	4.6	-2%
42	CCc1ccccc1NC(=O)CSc1n[nH]c(-c2cccnc2)n1	-9	-3	-0.4	/
43	O=C(Nc1cccc2[nH]ncc12)c1ccc(F)cc1	-8	-14	1.6	29%
44	CCc1cc2cc3c(cc2nc1SCC(=O)Nc1cc(OC)c(OC)cc1C(=O)O)OCO3	/	24	3.8	14%
45	O=C(NCCCN1CCOCC1)c1ccc2c(c1)N(Cc1c(F)cccc1Cl)C(=O)c1ccccc1S2	13	1	6.2	-5%
46	C=CCN(c1ccccc1C(=O)O)S(=O)(=O)c1ccc(NC(=O)OC)cc1	5	/	11	1%
47	CC1CCc2nn(CC(=O)NC3CCCC(C)C3C)cc2C1 (stereo not given)	-14	-9	-0.5	0%
48	C/C(=N\Nc1ncc(Cl)cc1Cl)c1ccc2c(c1)OCO2	-22	0	2.0	19%
49	CC(=O)c1cc2c(cc1NC(=O)CCC1CCCC1)OCO2	/	-3	-2.2	-1%
50	CCOC(=O)CN1C(=O)C(=O)N(Cc2c(F)cccc2Cl)C1=O	0	2	4.2	3%

item	LANA-H2B inh	Calb FLC	HNF4A DNA FP
39	-0.4	-10	5.2
40	/	/	2.8
41	-2.7	-5	-1.4
42	-0.8	-1	1.6
43	3.4	-4	3.8
44	-0.1	24	/
45	2.3	-2	1.8
46	-0.3	6	4.2
47	4.0	-7	-1.5
48	-11	-11	-2.7
49	-1.0	-23	/
50	3.0	-12	0.4

Additional results:
item	Compound	Beta2AR agonist	ALR inh	RanGTP-Impb inh	Vif TR-FRET
51	COc1ccc(C2N=C(c3ccccc3)C(C)(C)N2O)cc1OC (stereo not given)	4	12	-2.8	?
52	CCCCNC(=S)N(C)/N=C/c1sc(N2CCCCC2)nc1-c1cccs1	/	2	4.1	/
53	O=C(O)COc1ccccc1/C=N/NC(=O)c1cc(-c2ccc(F)cc2)nc2ccccc12	-20	29	-3.9	/
54	COc1ccc(N2CCN(C(=O)c3cccc(Cn4cc(Cl)cn4)c3)CC2)cc1	-4	68	?	11%
55	Cc1cc(NC(=O)C2CCCN(S(=O)(=O)c3cnc[nH]3)C2)ccc1Br (stereo not given)	-3	93*	-1.1	6%
56	Cc1csc2nc(CNS(=O)(=O)c3ccc(-c4ccccc4)cc3)cn12	2	1	6.7	2%
57	CC(C)C12CN3CC(C(C)C)(CN(C1)C31C(=O)Nc3ccccc31)C2=O (stereo not given)	-5	-10	1.3	12%
58	CC(C)OCCCn1c(SC(C)C(=O)NCC2CCCO2)nc2cc(Cl)ccc2c1=O (stereo not given)	-4	0	-2.7	-2%
59	CCCCCOc1ccc(CSC2=NCCN2)cc1[N+](=O)[O-]	3	99*	-3.2	-5%
60	COc1ccccc1N1CCN(C(=O)c2ccc(-c3ccccc3)cc2)CC1	-2	3	0.5	-4%
61	Cc1ccc(C(=O)OCC(=O)Nc2ccccc2N2CCOCC2)cc1	8	92*	1.8	19%
62	Cc1ccc(-c2nc3c(c(=O)[nH]c(=O)n3Cc3ccccc3)n2C)o1	-3	/	/	?
63	COc1ccc(/C=C(\NC(=O)c2ccc(OC)cc2)C(=O)Nc2ccccc2C(=O)O)cc1	-2	1	3.5	-9%

item	LANA-H2B inh	Calb FLC	HNF4A DNA FP
51	2.5	-17	1.2
52	1.2	?	/
53	1.1	4	-4.8
54	3.0	5	-0.8
55	-2.7	-8	2.4
56	-2.0	-10	-4.3
57	1.9	-4	-1.2
58	-5.2	-11	-1.9
59	-4.8	-49	2.5
60	1.4	15	4.3
61	4.5	-4	-0.4
62	/	/	-21
63	2.0	-3	1.3

Outcome played no part in choosing rows; overall some 6.3% were active at least once.
